Bead autofluor: compound fluorescence in toxin protease inhibitor counterscreen; compound autofluorescence counterscreen, microsphere flow cytometry; hits give high values; fluorescence intensity (test concentration not listed); 3.1% of 360,000 active;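 active = at least 3 SD above the mean of all compounds, about 16000 in these data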;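 note: 100 nL of 1 mM stock went into each well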
The depositor's hits bear a star.

A first look (four entries):
SMILES | Bead autofluor
COc1ccc(S(=O)(=O)Nc2cc3c4c(c2)CC(=O)N4CCC3)cc1OC | 4011
Cc1cc(Cl)ccc1C(O)c1ncc(-c2cccc(C(F)(F)F)c2)[nH]1 (stereo unspecified) | 3455
C=CCC1(CC=C)CC(Cc2cnccn2)N(C(=O)OC(C)(C)C)C1 (stereo unspecified) | 2739
Cc1cccc(CNC(=O)Nc2nnc([C@@H]3C[C@H](O)[C@@H](CO)O3)s2)c1 | 3702

The whole of this part, repeating the preview:
SMILES | Bead autofluor
COc1ccc(S(=O)(=O)Nc2cc3c4c(c2)CC(=O)N4CCC3)cc1OC | 4011
Cc1cc(Cl)ccc1C(O)c1ncc(-c2cccc(C(F)(F)F)c2)[nH]1 (stereo unspecified) | 3455
C=CCC1(CC=C)CC(Cc2cnccn2)N(C(=O)OC(C)(C)C)C1 (stereo unspecified) | 2739
Cc1cccc(CNC(=O)Nc2nnc([C@@H]3C[C@H](O)[C@@H](CO)O3)s2)c1 | 3702
Cc1ccc(S(=O)(=O)N2CCOCC2)cc1C(=O)NCCCN1CCCC1=O | 3856
COCCNC(=O)C1(C)CCN(C(=O)c2ccc3ccccc3n2)C1 (stereo unspecified) | 3940
Cc1ccc2nc(C3CCCCC3)c(Cc3cccc(Cl)c3)n2c1 | 6290
COc1cccc(NC(=O)CCC2CCN(C(=O)C(OC)c3ccccc3)CC2)c1 (stereo unspecified) | 3505
COc1ccc(CN2C(=O)C(CC(=O)NCC3CCCCC3)CC(C(=O)N3CCOCC3)=C2C)cc1 (stereo unspecified) | 3427
NC(=O)c1cccc(-c2ccnc3c2CC(C(=O)Nc2cccc(Oc4ccccc4)c2)O3)c1 (stereo unspecified) | 3484
CNc1ncnc2c1ncn2[C@H]1CN(Cc2cccc3ccccc23)C[C@@H](CO)O1 | 3771
CCCCC[C@@H]1[C@H]2[C@H]3C(=O)N(c4ccccc4)C(=O)[C@H]3CC(=O)[C@H]2[C@H](c2ccccc2)N1S(=O)(=O)c1ccc(C)cc1 | 5866
CCN1C(=O)[C@H]2[C@@H](c3ccc(C)cc3)N[C@]3(CCCN(Cc4ccc(OC)cc4)C3=O)[C@H]2C1=O | 3706
CC1=C(C(=O)N2CCOCC2)CC(CC(=O)NCCCN(C)C)C(=O)N1CCCN1CCCC1=O (stereo unspecified) | 6028
Cc1ccc(-c2nc3ccc(Cl)cn3c2Cc2ccccc2)cc1 | 2986
COc1cccc(-c2cnc(C(O)c3c(C)cc(C)cc3C)[nH]2)c1 (stereo unspecified) | 2994
COCCNC(=O)C1CCCN(Cc2ccccc2F)CC1 (stereo unspecified) | 3954
CCCc1c(C)nc2scc(-c3ccc(Cl)cc3)n2c1=O | 3882
O=C(Nc1cccc2cccnc12)c1ccc2sc([C@@H]3O[C@H](CO)[C@H](O)[C@H](O)[C@H]3O)nc2c1 | 3888
Clc1cccc(Cc2c(-c3ccccc3)nc3ccc(Br)cn23)c1 | 6670
CC1(C(=O)NS(=O)(=O)c2cccc(OC(F)F)c2)CCN1C(=O)c1ccccc1 (stereo unspecified) | 3572
Cn1nc(C(C)(C)C)cc1NC(=O)C1(C)CCN1C(=O)C1(c2ccccc2)CC1 (stereo unspecified) | 3507
CC(=O)Nc1cccc(-c2cc(NC(C)=O)c3ncc(-c4ccccc4)n3c2)c1 | 3754
COc1ccccc1CCNC(=O)c1c(N)[nH]c(C(=O)c2ccccc2)c1-c1ccc(Br)cc1 | 5724
COC(=O)c1ccc(COc2cccn3c(N(C)C(=O)CCC4CCCC4)c(C)nc23)cc1 | 3534
CCOC(=O)[C@]12CCC=C1N(Cc1ccccc1)C(=O)[C@H](CC(=O)NCc1cccc(C(F)(F)F)c1)C2 | 5739
COc1ccc(Cl)cc1-c1cc(C(=O)NC2CCCCC2)[nH]n1 | 3562
C#CCN(C[C@@H]1[C@@H](OC(=O)Nc2cccs2)[C@@H](OC(=O)Nc2cccs2)Cn2c(=O)n(CCCCCC)c(=O)n21)S(=O)(=O)c1ccc(C)cc1 | 3765
CCCCN1C(=O)C(CC(=O)NCc2cccc3ccccc23)CC(C(=O)N2CCOCC2)=C1C (stereo unspecified) | 3182
O=C(Nc1ccc(S(=O)(=O)NC2=NCCCCC2)cc1)c1cccc(OC(F)F)c1 | 3637
COCCNC(=O)C1CCCN(C(=O)Cc2ccc(F)cc2)CC1 (stereo unspecified) | 3542
O=C(c1ccc(C(F)(F)F)cc1)N1CCC(=O)N([C@H](COCc2ccc(Cl)cc2)Cc2ccccc2)CC1 | 5871
CC(C)n1c(=O)c2ccccc2n1Cc1cn(C2CCCC2)nn1 | 5630
Cc1ccc(C)c(NC(=O)CN(C)C(=O)c2ccccn2)c1 | 3849
COc1ccc(CNC(=O)c2sc(=O)n(Cc3cc(Cl)ccc3OC)c2C)cc1 | 5588
COc1cc(C#N)ccc1OCC(=O)Nc1cccc(S(=O)(=O)N(C)c2ccccc2)c1 | 3586
CN(CC(=O)Nc1cc(Cl)ccc1-n1cncn1)Cc1ccccc1N1CCOCC1 | 3957
COc1cc(C(O)c2nc(-c3ccccc3C)cs2)ccc1F (stereo unspecified) | 3297
Cc1cn(C2CC(O)C(O)C(CO)O2)c(=O)[nH]c1=O (stereo unspecified) | 5384
Cc1cccc(S(=O)(=O)NC(=O)C2(C)CCN2C(=O)c2cccc(F)c2)c1 (stereo unspecified) | 2746
C[C@H]1CN([C@@H](C)CO)C(=O)CCCn2nncc2CO[C@@H]1CN(C)C(=O)NC1CCCCC1 | 3014
Cc1nnc(SCC(=O)NC2CCCCC2)n1-c1ccccc1 | 3722
COc1ccc(OC)c(CCNC(=O)Cc2ccc(NC(=O)C3=C(C)OCCS3)cc2)c1 | 3486
Cc1ccc(F)c(S(=O)(=O)NC(=O)C2(C)CCN2C(=O)Cc2ccc(C(C)(C)C)cc2)c1 (stereo unspecified) | 3625
COc1ccc(CC(N)c2csc(Nc3cc(NCCCO)ncn3)n2)cc1 (stereo unspecified) | 3228
CC(C)C[C@@H](CN1CCCC1CN1C(=S)NC[C@@H]1Cc1ccccc1)N1C[C@H](Cc2ccc(O)cc2)N(CCc2ccccc2)C1=S (stereo partly specified) | 5696
O=C(NN=Cc1ccc2c(c1)CCC2)c1cccc([N+](=O)[O-])c1 | 2802
CCc1nc2c(OCCC3CCCCC3)cccn2c1N(C)C(=O)CC(C)C | 3691
COCCCn1c(SCC(=O)c2c(N)n(C3CC3)c(=O)[nH]c2=O)nnc1-c1ccccc1Cl | 3629
COc1ccc(C(O)c2nc(-c3ccoc3)cs2)cc1 (stereo unspecified) | 3674
COc1ccc(NS(=O)(=O)c2cccc(C(=O)N3CCN(C/C=C/c4ccccc4)CC3)c2)cc1 | 3955
C[C@@H]1CCCCO[C@H](CN(C)Cc2ccc(C(=O)O)cc2)[C@H](C)CN([C@@H](C)CO)C(=O)c2cc(NC(=O)Nc3ccc(C(F)(F)F)cc3)ccc2O1 | 3043
COCCNC(=O)C1(C)CCN(C(=O)c2nc(C)oc2C)C1 (stereo unspecified) | 3799
OC[C@@H]1CN(Cc2ccc(-c3ccccc3)cc2)C[C@H](n2cnc3c(NCc4ccc(F)cc4)ncnc32)O1 | 3901
CCCCc1c(-c2cccc(Cl)c2)ncn1CCc1ccccc1OC | 5977
Cn1c(-c2ccccc2)cc(=O)cc1-c1ccccc1 | 3054
CNc1cncc(-c2ccccc2NC(C)=O)n1 | 4083
CCOC(=O)C1=CCN(S(=O)(=O)c2ccccc2Cl)C1c1cccc(Br)c1 (stereo unspecified) | 6370
CC1(C(=O)NS(=O)(=O)c2cccc(Cl)c2)CCN1C(=O)C1(c2ccc(Cl)cc2)CCC1 (stereo unspecified) | 3550
OC[C@@H]1CN(Cc2cccnc2)C[C@H](n2cnc3c(N4CCOCC4)ncnc32)O1 | 3797

More entries follow:
SMILES | Bead autofluor
C[C@@H]1CN([C@@H](C)CO)S(=O)(=O)c2ccc(Br)cc2O[C@@H]1CN(C)Cc1cccnc1 | 3398
COc1ccc(/C=C/C(=O)OCC(=O)NC2CCCCCC2)cc1 | 4229
Nc1nccc(N2CCCCC2)n1 | 3538
CCc1nc2ccc(C(=O)N3CCN(c4ccccc4)CC3)cn2c1N(C)CCC(C)C | 4015
COc1ccc(-c2ccc(CN3C(CC(C)C)C(=O)N(Cc4cn(Cc5ccco5)nn4)CCS3(=O)=O)cc2)cc1 (stereo unspecified) | 4007
Cc1ccc(S(=O)(=O)N(C)C[C@H]2Oc3cc(Br)ccc3S(=O)(=O)N([C@H](C)CO)C[C@@H]2C)cc1 | 3914
COc1cc(C(=O)N2CCCC(c3cc(C(=O)NCc4ccc(F)cc4)no3)C2)cc(OC)c1C (stereo unspecified) | 3684
Cc1ccc(S(=O)(=O)NCc2cccc([N+](=O)[O-])c2)cc1 | 3544
COc1ccccc1-c1cccc(-c2nc(C(=O)Nc3nccs3)cc3c2[C@@H](CCO)N(C(=O)CC2CC2)C3)c1 | 6016
COc1ccc(-c2coc3c(C(=O)NCC(C)C)cccc23)c(C)c1 | 4032
CC1(C(=O)N2Cc3ccccc3C2)CCN1C(=O)Cc1ccccc1 (stereo unspecified) | 3767
COc1ccc(N2CCN(CCCn3cnc4c(OC)ncnc43)CC2)cc1 | 3902
CN(c1ccccc1)S(=O)(=O)c1ccc(C(=O)N2CCN(c3ccccc3)CC2)cc1 | 3672
COc1ccc(NC(=O)c2cc(C3CCCCN3C(=O)Cc3ccc(N(C)C)cc3)on2)c(C)c1 (stereo unspecified) | 3495
COc1ccc(/C=C(/NC(=O)c2ccc(Br)o2)C(=O)Nc2cccc(C(=O)O)c2)cc1 | 3007
CCOC(=O)C1(C)CCCN1C(=O)c1cccc(OC)c1 (stereo unspecified) | 3507
COc1ccc([C@H]2N[C@]3(CCCN(Cc4ccco4)C3=O)[C@H]3C(=O)N(Cc4ccccc4)C(=O)[C@@H]23)cc1 | 3846
Cc1ccccc1-c1nc(NCCN(C)C)nc2ccsc12 | 3755
CCCNC(=O)C1(C)CCN1C(=O)C/C=C/c1ccccc1 (stereo unspecified) | 2805
CC(C)NC(=O)C1(C)CCCCCN1C(=O)c1ccc(-c2ccccc2)cc1 (stereo unspecified) | 3731

Shown with tabs: part of the list above.
compound	Bead autofluor
COc1ccc([C@H]2N[C@]3(CCCN(Cc4ccco4)C3=O)[C@H]3C(=O)N(Cc4ccccc4)C(=O)[C@@H]23)cc1	3846
CCOC(=O)C1(C)CCCN1C(=O)c1cccc(OC)c1 (stereo unspecified)	3507
CC1(C(=O)N2Cc3ccccc3C2)CCN1C(=O)Cc1ccccc1 (stereo unspecified)	3767

Going on with the list:
SMILES | Bead autofluor
CNc1nc(NCc2cccc(OC)c2)c2sccc2n1 | 3031
Nc1[nH]c(C(=O)c2ccccc2)c(-c2ccc(Br)cc2)c1C(=O)c1ccc(Br)cc1 | 5964
COc1ccc(CCN2C(=O)CCC3=C2CCC3=O)cc1OC | 5820
COc1ccc(C#Cc2cccc(-c3nc(C(=O)NCCCN4CCOCC4)cc4c3[C@H](CCO)N(S(=O)C(C)(C)C)C4)c2)cc1OC (stereo partly specified) | 6366
CNC(=O)C1(C)CCN1C(=O)Cc1ccc(C(C)C)cc1 (stereo unspecified) | 3428
COc1ccc(Cl)cc1C(=O)OCC(=O)c1c(N)n(C)c(=O)n(C)c1=O | 4035
CN(Cc1ccco1)C(=O)[C@H](Cc1ccccc1)NC(=O)CC[C@H]1O[C@@H](n2ccc(=O)[nH]c2=O)[C@H](O)[C@@H]1O | 4359
CCCCc1c(-c2ccccc2OC)ncn1Cc1cccc(-c2ccccc2)c1 | 4440
CC(=O)Nc1ccc(C(=O)N2CCCC(c3cc(C(=O)NCc4ccc(F)cc4)no3)C2)cc1 (stereo unspecified) | 3748
CN(N=Nc1ccccc1C(=O)O)C1CCCCC1 | 2978
CN1CCN(c2ccc(CNC(=O)c3ccc(-c4ccnn4C)c4ccoc34)cc2)CC1 | 2961
COc1cccc(/C=C/C(=O)OCC(=O)Nc2ccc3c(c2)OCCO3)c1 | 4024
COCCN1C[C@@H](CO)O[C@@H](n2cnc3c(N(C)C(C)C)ncnc32)C1 | 4324
CC1=C(C(=O)N(C(C)C)C(C)C)CC(CC(=O)NC2CCCCC2)C(=O)N1Cc1ccc(C(C)(C)C)cc1 (stereo unspecified) | 6488
O=C(OCc1ccccc1)N1CCN(C(c2ccnc3ccccc23)c2nnnn2-c2ccc3c(c2)OCCO3)CC1 (stereo unspecified) | 6550
COCCN(CCOC)Cc1cc(=O)oc2cc(C)cc(C)c12 | 4231
CCOC1=C2CN(S(=O)(=O)c3ccc(C)cc3)[C@H](c3ccccc3)C[C@@H]2N(S(=O)(=O)c2ccc(C)cc2)[C@H](c2cccc(C)c2)C1 | 4059
CN(CCc1ccccc1)c1cc2c(c3c1ccn3C)C1CCC2C1 (stereo unspecified) | 8039
CCCNC(=O)C1(C)CCCN(Cc2cccc(Oc3ccccc3)c2)C1 (stereo unspecified) | 3870
Cc1cccc(CN(C)C[C@@H]2OCc3cnnn3CCCC(=O)N([C@H](C)CO)C[C@H]2C)c1 | 3494

A few values from the entries so far.
Value for CC(=O)Nc1ccc(C(=O)N2CCCC(c3cc(C(=O)NCc4ccc(F)cc4)no3)C2)cc1 (stereo unspecified) under Bead autofluor: 3748
Value for CNC(=O)C1(C)CCN1C(=O)Cc1ccc(C(C)C)cc1 (stereo unspecified) under Bead autofluor: 3428

The list goes on.
SMILES | Bead autofluor
CC(=O)NCCNC(=O)C1(C)Cc2c(-c3cccc(C(N)=O)c3)ccnc2O1 (stereo unspecified) | 3001
COc1cc(F)ccc1-c1cc(C(=O)NCc2cccs2)[nH]n1 | 4644
CC(C)(C)N(Cc1ccccc1)C(=O)COC(=O)Cn1[nH]c(=O)c2ccccc2c1=O | 3014
COC(=O)c1cc([N+](=O)[O-])c(C)c(C)n1 | 3743
C=CCOc1cccn2c(N(C)C(=O)c3ccccc3F)c(CC)nc12 | 3900
CNc1cncc(-c2cccc(C(=O)NCCN(C)C)c2)n1 | 3523

A portion of the library (hit frequency here may not be typical).
